Screening results (PubChem BioAssay)
HPGD inh: qHTS Assay for Inhibitors of HPGD (15-Hydroxyprostaglandin Dehydrogenase) | Potency, µM, without a hit: at the highest dose activity change, negative = inhibition, actives largely listed as inhibitors | hit rate 4.3% among 150,000 | purified HPGD, NADH fluorescence kinetic, PGE2 substrate | 15-hydroxyprostaglandin dehydrogenase [NAD(+)] (Homo sapiens), P15428; active = well fitted inhibition curve with a large enough effect (not every such curve was filed as active); inconclusive = small, poorly fitted or top-dose-only effect, or another doubt; inactive = no such curve, though single readings can be large or run the other way;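 further: top concentration of the series not given in the record; plate controls included wells without enzyme; inactives centre near -10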
Target sequence (P15428 whole entry, looked up): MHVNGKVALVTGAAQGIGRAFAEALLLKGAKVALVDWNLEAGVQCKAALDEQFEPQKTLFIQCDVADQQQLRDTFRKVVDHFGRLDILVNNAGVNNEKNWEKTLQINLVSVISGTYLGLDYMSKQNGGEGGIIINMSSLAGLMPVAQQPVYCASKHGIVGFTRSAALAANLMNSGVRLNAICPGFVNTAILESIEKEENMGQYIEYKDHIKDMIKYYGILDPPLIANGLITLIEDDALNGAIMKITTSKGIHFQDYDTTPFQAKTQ
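20 nM HPGD preincubated 15 min at room temperature with compound in 50 mM Tris-HCl pH 8, 0.01% Tween 20. Started with 1 mM NAD+ and 30 uM prostaglandin E2; NADH fluorescence (360/450 nm) read 5 times over 30-s intervals, last minus first.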
An asterisk follows results filed as active; ? = inconclusive; & = joins results of further samples. On the % scale 0 is the no-effect control and ±100 the full control effect; potency means the concentration at half of the fitted maximal effect. These rows are one share of the data, so the mix of outcomes need not match the whole.

HPGD inh,SMILES
-16%,Cc1nn2c3c(cnc2c1-c1ccc(Cl)cc1)C(=O)CC(c1ccco1)C3 (centres undefined)
-7%,Cc1n[nH]c(C)c1Sc1ccccc1N=Cc1cc([N+](=O)[O-])ccc1O
?,Cc1occc1C(=O)Nc1nnc(-c2ccncc2)s1
-8%,CC(C)(C)OC(=O)NCCCCC1=CC2=CC(=O)C(C)(O)C(=O)C2=CO1 (centres undefined)
-15%,Cc1cc(C)cc(N2C(=O)CSC2c2cccs2)c1 (centres undefined)
-13%,Cc1ccc(-c2cc(C(=O)Nc3cnn(C45CC6CC(CC(C6)C4)C5)c3)no2)cc1
-14%,O=C(O)CCCNS(=O)(=O)c1ccc2ccccc2c1
-16%,CC1CCCC(C)N1C(=O)CSc1nnnn1-c1cccc2c1CCCC2 (centres undefined)
-1%,COc1ccccc1CN1CCC2(CC1)CCN(C(=O)c1ccco1)CC2
-8%,O=C(NC(=S)N1CCN(c2ccc([N+](=O)[O-])cc2Cl)CC1)c1ccco1
-10%,Cc1ccccc1CSc1nnc(NC(=O)Cc2cccs2)s1
0%,CCOC(=O)C1CCCN(Cc2cccs2)C1 (centres undefined)
-4%,O=C1CCC(C(=O)OCc2cc(Cl)ccc2OC(F)F)N1 (centres undefined)
?,O=C1c2ccccc2C(Nc2ccc3nc(-c4cccnc4)[nH]c3c2)N1Cc1ccco1 (centres undefined)
-14%,Cc1cc(C)c(S(=O)(=O)NCc2ccc3c(c2)cc(C)n3C)c(C)c1
-12%,Cc1c(Cl)cccc1NC(=O)CC1SC(=NCC2CCCO2)NC1=O (centres undefined)
?,Cc1cc(-c2nc3ncccc3o2)ccc1NC(=O)CC(C)C
?,O=C(Cc1cccs1)NCc1ccco1
1%,CCOC(=O)C1CCC2(CC1)C(C#N)=C(N)Oc1n[nH]c(C)c12 (centres undefined)
-8%,C/C(=N\NC(=S)NCc1ccccc1)c1ccccc1
-25%,COc1ccc(NC(=O)Nc2ncccc2C)cc1
13µM*,COc1cc(/C=C2\C(=O)N(c3ccccc3)N=C2C)ccc1Oc1ccc([N+](=O)[O-])cc1[N+](=O)[O-]
-1%,C[C@H]1Cc2c(-c3ccccc3)nc3c(c2CO1)CN(S(=O)(=O)c1ccc(C#N)cc1)CC3
-17%,COc1cccc(NC(=O)C(OC(=O)c2ccc([N+](=O)[O-])o2)c2ccccc2)c1 (centres undefined)
-17%,Cc1nnc(NC(=O)CSc2nc3ccccc3o2)s1
-14%,Cc1ccc(Oc2ccc(Cl)cc2NC(=O)c2ccc(F)cc2F)cc1
-7%,Cc1cc(=O)[nH]c(N2CCCC2)n1
-6%,O=c1[nH]cnc2c1c(-c1ccccc1)cn2-c1ccc(F)cc1
-14%,Brc1cccc(/C=N\n2cnnc2)c1
-27%,O=C(Nc1ccc(Cc2ccc(NC(=O)C3CC3)c(O)c2)cc1O)C1CC1
-11%,CC(C)(C)NC(=O)COC(=O)c1cc(F)c(F)cc1Cl
-2%,N#CCC(=N)N1CCN(c2cccc(Cl)c2)CC1
-11%,CCN1CCN(C(c2cccs2)C(C)NS(=O)(=O)c2ccc(F)cc2)CC1 (centres undefined)
-11%,COc1ccccc1C(c1nnnn1C(C)(C)C)N1CCN(Cc2ccncc2)CC1 (centres undefined)
-7%,CC(=O)c1cccc(NC(=O)c2cc(-c3ccc(F)cc3)on2)c1
?,Clc1ccc(OCc2cc(-c3ccccc3)no2)c(Cl)c1
-9%,COc1ccnc(CSC(N)=Nc2ccc(F)cc2)c1
-19%,N#Cc1ccccc1/C=N/Nc1nc(-c2ccccc2)c2cc(Br)ccc2n1
1.6µM*,Cc1c(-c2ccccc2)sc(Br)c1C(=O)N1CCOCC1
-9%,O=S(=O)(Nc1nc2ccccc2nc1NCc1ccco1)c1cccs1
-3%,CCC(c1nnnn1CCOC)N(Cc1cc2c(C)cc(C)cc2[nH]c1=O)CC1CCCO1 (centres undefined)
-15%,COc1cccc(/C=N/NC(=O)CN(C2=NS(=O)(=O)c3ccccc32)c2ccccc2)c1
3.5µM*,S=c1[nH]nc(-c2ccco2)n1/N=C/c1ccc(Cl)cc1
-5%,O=C(Nc1ccccc1)N(C1=NCCC1)c1ccc(OC(F)F)cc1
-10%,COC(=O)C1=NN[C@H](C(=O)OC(C)(C)C)[C@H]1c1ccccc1
0%,N/C(Cc1ccc([N+](=O)[O-])cc1)=N\OC(=O)Cc1ccccc1
4%,Cc1ccc2oc(-c3cccc(NC(=O)c4ccc(Br)o4)c3)nc2c1
-24%&-19%,Nc1ccc(O)c2c(=O)cc(-c3ccccc3Cl)oc12
-2%,O=C(O)CC(C(=O)N(c1ccccc1)c1ccccc1)N1CCOCC1 (centres undefined)
-11%,COc1ccccc1CNC(=O)c1cnccn1

6 entries from above, ordered by length of the SMILES, rising:
HPGD inh,SMILES
-11%,COc1ccccc1CNC(=O)c1cnccn1
-25%,COc1ccc(NC(=O)Nc2ncccc2C)cc1
-2%,N#CCC(=N)N1CCN(c2cccc(Cl)c2)CC1
?,Cc1cc(-c2nc3ncccc3o2)ccc1NC(=O)CC(C)C
-7%,CC(=O)c1cccc(NC(=O)c2cc(-c3ccc(F)cc3)on2)c1
-10%,COC(=O)C1=NN[C@H](C(=O)OC(C)(C)C)[C@H]1c1ccccc1

Later entries
HPGD inh,SMILES
-13%,Clc1ss/c(=N\c2ccccn2)c1Cl
-3%,FC(F)(F)c1cc(N2CCOCC2)nc(-c2ccccc2)n1
-15%,Cc1ccc(C(=O)NNC(=S)NC(=O)COc2ccccc2)cc1
-14%,CSC1=NCCN1C(=O)Cc1cccs1
-16%,CC1CCC2(CC1)C(Nc1cccc(Cl)c1)=NC(=S)N2CC#N (centres undefined)
-11%,Cc1nnc(SCCCN2C(=O)c3ccccc3C2=O)o1
14µM*,O=C(c1cc2ccccc2o1)c1nc2c(n1O)CCCCC2
-11%,COc1ccc(-c2c(C#N)c(N)nc3sc(C(=O)c4ccc(C)cc4)c(N)c23)cc1
-10%,CCSc1nnc(NC(=O)c2cccnc2Cl)s1
2%,Cc1ccc(OCC(=O)Nc2ccc3c(c2)OC(F)(F)O3)c([N+](=O)[O-])n1
?,COc1ccc(N2CCN(C(=O)c3ccc(COc4ccc5c(C)cc(=O)oc5c4)cc3)CC2)cc1
?,COC(=O)Nc1cccn(Cc2c(Cl)cccc2Cl)c1=O
-11%,CCCCCCCC1=Cc2ccccc2C(CC(=O)c2ccccc2)N1C(=O)OC (centres undefined)
-4%,O=C(Nc1sc2c(c1C(=O)c1ccccc1)CCCC2)c1cccnc1
2%,O=C(COc1ncnc2ccccc12)NC1CCS(=O)(=O)C1 (centres undefined)
-21%,O=C1CCCc2nc(N3CCN(C(c4ccccc4)c4ccccc4)CC3)ncc21
-22%,O=c1cc(N2CCCCC2)c(-c2ccccc2)nn1Cc1ccc(Cl)cc1Cl
-18%,Cc1ccc(/C=C(\NC(=O)c2ccc(C)cc2)c2nc(=S)[nH][nH]2)cc1
-1%,CCCn1c(SCC(=O)N2CCN(S(=O)(=O)c3ccc(Cl)cc3)CC2)n[nH]c1=O
?,O=C(c1ccco1)N1CCN(c2ncnc3c2[nH]c2ccccc23)CC1
?,COCCn1nnnc1C(c1cc2cc(OC)ccc2[nH]c1=O)N1CCC(Cc2ccccc2)CC1 (centres undefined)
-15%,CCN(CC)S(=O)(=O)c1cc(C(=O)n2cccn2)c(Cl)cc1Cl
-6%,COCCNC(=O)C1(CC(C)C)C=CCN1C(=O)OC (centres undefined)
-13%,COC(=O)c1cc2oc(C)cc2n1CC(=O)Nc1cc(C)cc(C)c1
-26%,Cc1ccc2nc(C)c(C(=O)N/N=C/c3cccc([N+](=O)[O-])c3)cc2c1

Entries listed so far printed as active in HPGD inh.
HPGD inh,SMILES
13µM*,COc1cc(/C=C2\C(=O)N(c3ccccc3)N=C2C)ccc1Oc1ccc([N+](=O)[O-])cc1[N+](=O)[O-]
1.6µM*,Cc1c(-c2ccccc2)sc(Br)c1C(=O)N1CCOCC1
3.5µM*,S=c1[nH]nc(-c2ccco2)n1/N=C/c1ccc(Cl)cc1
14µM*,O=C(c1cc2ccccc2o1)c1nc2c(n1O)CCCCC2

Next part:
HPGD inh,SMILES
-14%,C=C(C)C1CCC(C)=C1CC(C)(C)/C=N\n1cnnc1 (centres undefined)
-7%,O=C(CN1CCOCCOCCOCCOCC1)Nc1ccccc1
-8%,CN(CCCNC(=O)C1CCN(S(=O)(=O)N2CCC3(CC2)OCCO3)CC1)Cc1ccccc1
-9%,CCOC(=O)c1c(C)[nH]c(C(=O)C(C)Sc2ccc(Cl)cc2)c1C (centres undefined)
-28%,O=C(CN1C(=O)c2cccc3cccc1c23)N1CCN(c2ccc(F)cc2)CC1
?,COc1ccc(Cc2nc(-c3ccc(-n4cccc4)cc3)no2)cc1OC
-6%,COc1cccc(C(=O)Cn2c(NCCO)nc3ccccc32)c1
-2%,O=C(O)[C@H]1C[C@@H](CP(=O)(O)O)CCN1
-20%,COc1ccc(COc2ccsc2C(=O)Nc2ccc(Cl)c(Cl)c2)cc1
-6%,COCC(=O)Nc1nnc(Cc2ccc(OC)cc2)s1
-23%,CN(C)CCCN1C(=O)c2oc3ccccc3c(=O)c2C1c1cccs1 (centres undefined)
-27%,CCOCC(=O)Nc1nc(-c2ccccc2)c(CC)s1
0%,Cc1ccc(O)c([C@H](CCN(C(C)C)C(C)C)c2ccccc2)c1
-6%,COc1ccc(N(CC(=O)NCc2ccco2)S(=O)(=O)c2c(C)nn(C)c2C)cc1
?,Cc1nn(-c2ccccc2)c(N2CCCC2)c1/C=N/Nc1ccc(S(=O)(=O)Nc2ccccc2)cc1[N+](=O)[O-]
-1%,CN1C(=O)CSc2ccc(NC(=O)NCc3cccnc3)cc21
-7%,Cn1c(=O)n(Cc2ccccc2)c(=O)c2c1nc(NCC1CCCO1)n2Cc1ccccc1 (centres undefined)
?,CC(=O)C1=C(O)C(=O)N(c2nccs2)C1c1ccc(Br)cc1 (centres undefined)
-6%,O=C(Nc1cccc(-c2nc3ccccc3s2)c1)C1=COCCO1
-7%,O=C(NCCO)C1(c2ccccc2)CCCC1
-16%,O=c1c2ccccc2c2ccccc2c(=O)n1Cc1ccco1
-13%,COC(=O)[C@@]1(Cc2ccccc2)[C@H]2c3cc(C(=O)N(C)C)n(Cc4ccccc4)c3C[C@H]2CN1C(=O)c1ccccc1
-9%,CCOC(=O)CSc1nc2sc(C)c(C)c2c(=O)n1C
-15%,COc1cc(C2N(c3ccccc3)CCN2c2ccccc2)ccc1OC(C)=O
-5%,CCOc1c(Br)cc(CNc2ncn[nH]2)cc1OC
?,Cc1cc(N=Cc2c(O)n(-c3ccc4c(c3)OCO4)c(=O)c3ccccc23)ccn1
-13%,CCOC(=O)c1nnn(-c2nonc2-n2cccc2)c1CN1CCOCC1
-21%,O=C(/C=C/c1ccc(Cl)cc1Cl)NCc1ccncc1
-14%,CCOC(=O)C1=C(CN2CCCCC2)NC(=O)NC1c1cc(C)ccc1C (centres undefined)
-4%&-7%,COC(=O)[C@@]1(Cc2ccc(OC)cc2)[C@H]2c3cc(C(=O)N(C)C)n(CCc4ccc(OC)c(Br)c4)c3C[C@H]2CN1C(=O)c1ccccc1
?,O=C1CCN(N=Nc2cccc(Cl)c2)N1
?,CC(C)(C)OC(=O)N1CC=C2C(C#N)=C(N)C(C#N)(C#N)C(c3cccs3)C2C1 (centres undefined)
-14%,Nc1cccc(S(=O)(=O)c2cccc(N)c2)c1
-11%,CCOc1cccc(OCCCOc2ccccc2)c1
16µM*,CCn1c(O)c(C=Nc2ccccc2)oc1=S
-2%,Cc1ccc(NC(=O)C2(N(CC(C)C)C(=O)Cn3nnnc3N)CCCCC2)cc1
-14%,CCc1ccc(-n2c(SCC(=O)Nc3cccc(S(=O)(=O)NC4=NCCCCC4)c3)nc3ccccc3c2=O)cc1
?,CCN(Cc1cc(=O)n2ccsc2n1)c1cccc2ccccc12
?,CCOc1ccccc1C(=O)NC(C)c1ccc2c(c1)OCO2 (centres undefined)
-1%,CSc1cccc(NC(=O)C2CCN(S(C)(=O)=O)CC2)c1
-4%,O=C(NCc1ccccn1)C1CC(c2ccc(F)cc2)=NO1 (centres undefined)
-11%,c1ccc(C2[C@H]3CN(Cc4cccnc4)[C@H](c4ccccc4)C34CC2(c2cccnc2)C4)cc1 (some centres undefined)
-17%,Cc1ccc(C)c(-c2nn(-c3cc(N4CCN(CCO)CC4)ccc3[N+](=O)[O-])c(=O)c3ccccc23)c1
-8%,COc1cc(C(=O)NCc2nnc(SCC(=O)Nc3cccc(C)c3)o2)cc(OC)c1OC
-6%,COC(=O)CC1C(=O)NCCN1C(=S)NC(=O)c1ccccc1[N+](=O)[O-] (centres undefined)
-9%,CC1(C)Cc2nc3oc4c(=O)n(CC(=O)Nc5ccccc5)cnc4c3cc2CO1
?,COC(=O)c1cn(NC(=O)CCC2CCCC2)c(=O)c2ccccc12
-5%,COc1ccc(CCNC(=O)Cn2cc(C(F)(F)F)cc(Cl)c2=O)cc1OC
-10%,Cc1c(C(=O)N2CCOCC2)sc2ncn(CC(=O)N3CCC(C)CC3)c(=O)c12
5µM*,O=C(CCc1ccccc1)NCCSCc1c(F)cccc1Cl
-14%,COc1ccc(CNC(=O)c2cnn3c(C(F)F)cc(C)nc23)cc1OC
